Rce1 inhib: blocks yeast Ras-converting enzyme | Q03530 | yeast membranes, quenched prenylated peptide cleavage fluorescence | calls only | 0.27% of 290,000 active;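 active = fall in fluorescence gain of 50% or more versus controls, with final raw signal at or below 3038400; inconclusive = same 50% fall but final raw signal above 3038400; inactive = fall in fluorescence gain under 50%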;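 note: plate controls were neutral control wells for no effect and wells lacking membranes for full effect; tested at 10 µM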
eIF4H inh: inhibitors of RNA binding by human eIF4H | eIF4H fluorescence polarization binding assay | AID 2012 | inhibition, % at 35 µM | Q15056 | 0.94% of 290,000 active;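 active = 50% or more with normal probe brightness, or confirmed in later tests; inconclusive = above 50% with abnormal brightness, or retests that disagree; inactive = below 50% or failed in later tests; about a fifth of its hits are not listed in these tables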;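 note: calls also rest on retests at 20 µM and on dose response follow-up; 0% = protein and probe with vehicle and 100% = probe without protein; strong numbers were not always called active; many hits fall short of the cut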
Env fusion inh: HIV envelope-mediated fusion inhibition. HeLa-JRFL Env/CEM21 cell fusion, luciferase. inhibition, % at 12.3 µM. 1.1% of 360,000 active. AID 651610;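 active = mean replicate inhibition score of at least 50 and every replicate individually at or above 50; inconclusive = only one of the two criteria met; inactive = mean below 50 and not all replicates reaching 50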;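 note: 0% = plate neutral controls and 100% = maraviroc near 300 nM; one replicate is shown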
MT1-MMP act inh: inhibitors of human MT1-MMP activation; AID 651647; P50281; GFP/RFP ratio change, % at 20 µM; HT1080 RFP-PRO-GFP cells, GFP/RFP ratio fluorescence, overnight; percent of plate control window, DMSO zero; 0.061% of 360,000 active;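 active = GFP/RFP ratio change of at least 30% with cell ATP level not reduced by more than half and red fluorescence within 50% of control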; note: strong numbers were not always called active
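Test system: HT1080 cells expressing an RFP-PRO-GFP fluorescent reporter construct / Compound dosing: single-point 20 µM compound, 1% DMSO / Schedule: cells overnight before dosing, compound overnight, 37 °C, 5% CO2 / Evaluation: GFP/RFP fluorescence ratio / Control set: DMSO and RFP-L50D-GFP cell wells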
Yeast UUG start: alters start codon recognition fidelity in yeast; 0.13% of 350,000 active; S. cerevisiae UUG-firefly luciferase reporter, luminescence/redox ratio; activity score, % at 18.7 µM;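 active = replicate mean at a twofold rise or more, about +100% in these data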;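 note: firefly luciferase made from a UUG start codon reports start codon fidelity; reporter light over untreated wells divided by growth signal over untreated wells; some hits fall short of that in this replicate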
CSC inhib: blocks cancer stem cells; inhibition, % at 7.5 µM; cancer stem cell-like cells viability, luminescence; 1.1% of 300,000 active; AID 2717;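 active = mean at 75% or more and at least half the replicates too; inconclusive = mean and replicates disagree; tested in HMLE shEcad cells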;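 note: 0% = median of negative and 100% = median of positive control wells; the first replicate is given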
PABP polyA inh: PABP-poly(A) binding inhibition. 1% of 290,000 active. AID 2014. PABP-poly(A) RNA binding, fluorescence polarization. inhibition, % at 35 µM;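 active = 50% or more with normal probe brightness, or confirmed in later tests; inconclusive = above 50% with abnormal brightness, or retests that disagree; inactive = below 50% or failed in later tests; about a fifth of its hits are not listed in these tables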;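 note: calls also rest on retests at 20 µM and on dose response follow-up; controls were probe without protein and protein plus probe with vehicle; some compounds called inactive have numbers as strong as hits; many hits fall short of the cut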
Target sequence (P11940 whole entry, looked up): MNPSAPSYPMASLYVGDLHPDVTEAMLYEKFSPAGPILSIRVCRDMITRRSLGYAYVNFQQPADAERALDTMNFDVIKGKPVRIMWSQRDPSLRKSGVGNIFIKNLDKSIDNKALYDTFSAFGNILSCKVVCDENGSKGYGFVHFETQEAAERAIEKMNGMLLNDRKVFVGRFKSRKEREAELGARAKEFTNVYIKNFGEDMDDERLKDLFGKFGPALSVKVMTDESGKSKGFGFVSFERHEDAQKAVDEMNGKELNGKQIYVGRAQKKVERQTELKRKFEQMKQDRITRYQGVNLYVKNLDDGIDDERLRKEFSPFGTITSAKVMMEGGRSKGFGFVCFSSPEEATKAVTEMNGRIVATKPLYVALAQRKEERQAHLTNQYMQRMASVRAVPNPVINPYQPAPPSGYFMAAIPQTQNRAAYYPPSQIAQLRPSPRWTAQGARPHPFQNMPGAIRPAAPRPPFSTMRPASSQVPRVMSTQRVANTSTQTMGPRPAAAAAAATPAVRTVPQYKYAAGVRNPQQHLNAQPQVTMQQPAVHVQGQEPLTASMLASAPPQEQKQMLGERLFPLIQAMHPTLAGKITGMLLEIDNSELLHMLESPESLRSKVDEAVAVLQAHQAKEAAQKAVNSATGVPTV
MT1-MMP act inh RFP: further read-out of MT1-MMP act inh, marked with its call; RFP signal change, %; measured here: RFP expression control read;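 0 = vehicle wells; hits needed this value within 50% of zero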
* marks the source's active call; other numbers are inactive results; i = inactive; ? = inconclusive; / = not tested or not shown.

SMILES	Rce1 inhib	eIF4H inh	Env fusion inh	MT1-MMP act inh	MT1-MMP act inh RFP	Yeast UUG start	CSC inhib	PABP polyA inh
COc1cc(NC(=O)CCN2CCN(CCO)CC2)cc(OC)c1	i	4	-35	-2	0	13	-15	-13
Cc1cc(NC(=O)Cc2cccs2)nn1CC(=O)NCc1ccco1	i	-17	/	2	1	-16	2	3
CSc1cccc(NC(=O)c2ccc(Cl)nc2)c1	i	-10	/	1	1	1	-5	-2
COc1cc(C)c(S(=O)(=O)NC2CC(C)(C)NC(C)(C)C2)cc1C	i	-8	-94	2	3	-13	-15	2
CCCCCN(C(=O)CCC(=O)OCc1cc(C(C)=O)ccc1OC)c1c(N)n(CCCC)c(=O)[nH]c1=O	i	/	9	0	-2	/	-8	/
COc1ccc(C)cc1S(=O)(=O)N(C)CC(N)=O	i	-6	/	-3	-2	6	2	-3
CCOC(=O)c1sc(NC(=O)CSc2nccc(C)n2)c(C#N)c1C	i	-5	-49	2	4	7	-18	-1
CC(=O)Nc1nc(C)nc(-c2ccccc2)c1C(C)=O	i	1	-26	-4	0	-11	22	5
COc1ccccc1N1CCN(C(=O)c2cnn3cccnc23)CC1	i	-3	/	/	/	/	/	7
CCCCC(=O)Nc1ccc(C(=O)NNC(=O)c2ccco2)cc1	/	3	/	-3	1	-7	14	-15
Cc1c(N=O)c(-c2ccccc2)n(O)[n+]1[O-]	/	/	7	-4	-3	-12	/	/
COC(=O)c1cc(CN2CCN(c3ccccc3C)CC2)ccc1O	i	-2	/	-1	2	-6	/	-12

Next section; the last 4 above are carried over.
SMILES	Rce1 inhib	eIF4H inh	Env fusion inh	MT1-MMP act inh	MT1-MMP act inh RFP	Yeast UUG start	CSC inhib	PABP polyA inh
COc1ccccc1N1CCN(C(=O)c2cnn3cccnc23)CC1	i	-3	/	/	/	/	/	7
CCCCC(=O)Nc1ccc(C(=O)NNC(=O)c2ccco2)cc1	/	3	/	-3	1	-7	14	-15
Cc1c(N=O)c(-c2ccccc2)n(O)[n+]1[O-]	/	/	7	-4	-3	-12	/	/
COC(=O)c1cc(CN2CCN(c3ccccc3C)CC2)ccc1O	i	-2	/	-1	2	-6	/	-12
COc1cc(NC(=O)COC(=O)CC2CC3CCC2C3)cc(OC)c1 (stereo not given)	/	/	-17	7	8	-15	-9	/
O=C(CSc1nc(-c2ccc(F)cc2)cc(C(F)(F)F)n1)Nc1ccc2c(c1)OCO2	i	2	?	-2	-1	-17	13	14
COc1ccc(N2CCN(S(=O)(=O)c3ccc(C(=O)NC4CCCC4)cc3)CC2)cc1	i	6	/	1	0	-2	/	4
N#CCO/N=C(\c1ccccc1)c1ccncc1	i	5	-19	3	-1	/	4	-7
O=C(NCCCl)Nc1cccc(Br)c1	i	-15	10	2	3	/	-3	-5
COc1cccc(OCCSc2nnc3sc4ccccc4n23)c1	i	1	/	5	3	-17	1	7
CCOC(=O)c1sc2c(c1C)C(c1cccs1)C1=C(CCCC1=O)N2 (stereo not given)	i	2	/	-2	-13	/	2	-5
COc1cccc(N2CCN(c3ncnc4c3cnn4-c3ccc(C)cc3C)CC2)c1	i	-2	?	-26	-27	-20	42	-6
COCCn1c(C)cc(C(=O)CN2C(=O)NC3(CCCCCCC3)C2=O)c1C	i	8	/	-1	-2	0	4	16
CS(=O)(=O)c1ccc(Nc2nc(C(N)Cc3ccc(C(F)(F)F)cc3)cs2)cc1 (stereo not given)	/	/	4	-10	-9	-4	/	/
O=C(Cn1cnc2c(NCc3ccccc3)ncnc21)NCCCc1ccccc1	/	/	-17	4	0	-12	/	/
Cc1ccc2nc(C)cc(N/N=C/c3cccc(O)c3)c2c1	i	2	-10	4	2	-9	4	-7

Molecules from the list above that contain a furan ring, fused or not, in the order listed:
SMILES	Rce1 inhib	eIF4H inh	Env fusion inh	MT1-MMP act inh	MT1-MMP act inh RFP	Yeast UUG start	CSC inhib	PABP polyA inh
Cc1cc(NC(=O)Cc2cccs2)nn1CC(=O)NCc1ccco1	i	-17	/	2	1	-16	2	3
CCCCC(=O)Nc1ccc(C(=O)NNC(=O)c2ccco2)cc1	/	3	/	-3	1	-7	14	-15

Continued:
SMILES	Rce1 inhib	eIF4H inh	Env fusion inh	MT1-MMP act inh	MT1-MMP act inh RFP	Yeast UUG start	CSC inhib	PABP polyA inh
CCC(C)[C@H](NC(=O)OC(C)(C)C)C(=O)N/N=C/c1ccc2cc(OC)ccc2n1 (stereo not given in full)	i	2	-13	0	-2	/	2	-9
CCNC(=O)O/N=C(\C)c1sc(-c2ccc(Cl)cc2)nc1C	i	-8	/	-1	-5	-12	-1	4
C/C(=N\NC(=O)CSc1nc2ccccc2o1)c1ccc(O)cc1	i	0	-5	1	0	-19	/	10
Cc1ccc(C)c(C(=O)CN2C(=O)c3ccccc3C2=O)c1	i	-10	2	-4	-4	-30	-11	24
O=C(CCC1CCCN(C(=O)c2cccnc2)C1)NCc1ccccc1F (stereo not given)	i	-3	3	-3	2	-9	4	4
CCCC1(c2ccccc2)NC(=O)N(CC(=O)NCc2ccc(OC)cc2)C1=O (stereo not given)	i	-8	-1	1	0	14	-4	-1
CC(=O)NCC1(O)CCCC(C)C1 (stereo not given)	i	1	3	0	0	/	-5	4
CC1CCCC(C)N1CCCNC(=O)c1cc2c(=O)n(C)c3ccccc3c2n1C (stereo not given)	i	2	0	9	10	11	-9	-4
Cc1c(C#N)c(NC(=O)c2ccccc2)n(Cc2ccccc2)c1C	i	-3	/	4	4	-14	6	-1
CC1(C(=O)NS(=O)(=O)c2ccccc2)CCN1C(=O)C1(c2ccc(Cl)cc2)CC1 (stereo not given)	/	/	4	-4	1	7	/	/
CCOc1ccccc1N1CCN(C/C=C/c2ccc(N(C)C)cc2)CC1	i	3	/	1	1	-5	14	22
Cc1ccccc1NC(=O)Nc1nnc([C@@H]2C[C@H](O)[C@@H](CO)O2)s1	/	/	24	2	7	-26	/	/
c1ccc(-c2cc3nccc(-c4ccccn4)n3n2)cc1	i	-3	-50	-1	-3	/	-3	-1
CCc1nnc(NC(=O)CSc2nnc3nc(C)cc(C)n23)s1	i	-3	-7	4	6	-22	/	7
CCOC(=O)C1(Cc2cccc(F)c2)CCN(C(=O)Cn2cnnn2)CC1	i	10	-12	1	2	/	-15	0
Cc1nn(C)cc1/C=N\NC(=O)c1ccc2c(c1)c(C)c(C)n2Cc1ccccc1	i	-2	-6	6	7	-30	21	-1
O=C(NCC(c1ccco1)N1CCCC1)c1ccc(S(=O)(=O)Nc2ccccc2F)cc1 (stereo not given)	i	/	/	2	-9	-14	3	/
CCOC(=O)c1c(NC(=S)NC(=O)/C=C/c2cccs2)sc(C)c1C	i	0	3	-3	-1	/	6	17
CC(C)(C)C(=O)C(C(c1ccccc1)N1CCOCC1)N1CCOCC1 (stereo not given)	/	/	10	-4	-3	0	/	/
O=C(NCCc1cnc[nH]1)Nc1cccc(C(F)(F)F)c1	i	-1	10	7	5	3	-5	4
O=[n+]1cc(-c2ccc(Cl)cc2)n([O-])c2c1CCCCC2	i	-2	14	/	/	/	-1	-3
Fc1ccc(N2CCN(Cc3cnc(N4CCOCC4)s3)CC2)cc1	i	4	4	-1	3	/	0	5
CCOC(=O)c1cn(-c2nc(-c3ccc(Cl)c(Cl)c3)cs2)c2c(F)c(N3CCOCC3)c(F)cc2c1=O	i	-7	15	2	-3	-11	51	6
O=C(Nc1ccc(S(=O)(=O)Nc2ncccn2)cc1)c1ccccc1NS(=O)(=O)c1ccc(Cl)cc1	i	1	-9	2	5	-6	3	33
COCCCNc1nc(SCc2ccccc2)nc2sc3c(c12)CCC3	i	4	25	5	-3	-6	10	10
COc1ccccc1NC(=O)C(C)Sc1nc2ccccc2c(=O)n1CC1CCCO1 (stereo not given)	i	/	32	2	0	3	13	/
Cc1c(Cl)ccc2c(C(=O)NC(C)c3ccncc3)cc(-c3ccncc3)nc12 (stereo not given)	i	0	/	/	/	/	5	10
Cc1cc(NC(=O)CCCC(=O)NCc2cccs2)no1	/	4	-27	-3	-1	2	-5	-1
Cc1cc(-c2ccc(NS(=O)(=O)c3ccccc3)c(C)c2)ccc1NS(=O)(=O)c1ccccc1	/	/	-20	0	-4	-9	/	/
CC(C)C[C@H](NC(=O)c1nc[nH]c1C(=O)N1CCN(C(=O)OC(C)(C)C)CC1)C(=O)OCc1ccccc1	i	6	-22	7	2	3	/	2
CCOC(=O)C1CCN(c2cc3c(cc2NC(=O)c2ccccc2)n(C)c(=O)n3C)CC1	i	-2	-11	-6	1	4	9	2
COc1ccc(N(C)C2=NS(=O)(=O)c3ccccc32)cc1	i	-6	49	-6	-12	-10	35	1
O=C(NCC(=O)N(c1cccnc1)C(C(=O)NC1CCCCC1)c1ccccc1F)c1ccco1 (stereo not given)	i	1	12	1	7	/	-15	7
CC1C(=O)N2CCCc3cc(S(=O)(=O)NCCc4ccccc4)cc1c32 (stereo not given)	i	/	10	-1	-5	-7	3	/
Cc1ccc(C(=O)OCC(=O)Nc2ccc(S(N)(=O)=O)cc2)c(O)c1	i	-7	21	5	1	-17	-17	-16
CC(C)CN(C(=O)COC(=O)C12CC3CC(CC(O)(C3)C1)C2)C1CCS(=O)(=O)C1 (stereo not given)	i	1	-28	-4	3	/	-5	5
Nc1c(N(CCC2=CCCCC2)C(=O)C2CC2)c(=O)[nH]c(=O)n1Cc1ccccc1	i	-3	/	-3	0	13	0	-2
O=C(c1ccc2c(c1)CCC2)N1CCN(Cc2c(F)cccc2Cl)CC1	/	/	16	1	-7	0	/	/
Cn1cccc1C(=O)OCC(=O)NCCc1ccc(S(N)(=O)=O)cc1	/	/	72*	2	5	-20	-10	/
Cc1c(/C=N/NC(=O)CNc2ccccc2)c2ccccn2c1C(=O)c1ccc(Cl)cc1	i	-7	8	-1	-10	-16	-13	14
Cc1ccc(NC(=O)C2(C)CCN2C(=O)C2(c3ccc(Cl)cc3)CC2)cc1 (stereo not given)	/	/	5	-2	-6	3	/	/
S=C(Nc1ccc(Cl)c(Cl)c1)NC1CCCCC1	i	-7	/	-7	-22	/	66	-3
O=C(NCCO)C(c1ccccc1)c1ccccc1	i	1	-101	1	4	0	-3	9
COc1ccccc1CN1CC(C(=O)N2CCC(OC)CC2)CCC1=O (stereo not given)	i	-10	-15	-2	1	-16	-6	-10
CC(C)CS(=O)(=O)C1=NSC2=NC(=O)/C(=C\c3ccc(OC(=O)c4ccco4)cc3)C(=N)N21	i	-6	-1	-1	3	-17	6	10
Cc1occc1C(=O)N/N=C/C1=C(N2CCOCC2)C(=C\c2ccc(Cl)cc2Cl)/CC1	i	3	9	-5	1	-8	9	2
